Bioassay records as filed in PubChem.
GLA inh pH 4.5 = alpha-galactosidase A (human) inhibition, pH 4.5; purified enzyme, 4-MU-alpha-Gal fluorescence, pH 4.5; 230,000 tested, under 10 active; P06280; activity change, negative = inhibition, % at 105 µM; inconclusive = small, poorly fitted or top-dose-only inhibition, or a rising curve; inactive = flat fitted curve, though single readings scatter; no compound was filed as active;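 note: 0% = full activity with enzyme and -100% = basal without enzyme; dose as in the result columns while the protocol names 77 µM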
Target sequence (P06280 whole entry, looked up): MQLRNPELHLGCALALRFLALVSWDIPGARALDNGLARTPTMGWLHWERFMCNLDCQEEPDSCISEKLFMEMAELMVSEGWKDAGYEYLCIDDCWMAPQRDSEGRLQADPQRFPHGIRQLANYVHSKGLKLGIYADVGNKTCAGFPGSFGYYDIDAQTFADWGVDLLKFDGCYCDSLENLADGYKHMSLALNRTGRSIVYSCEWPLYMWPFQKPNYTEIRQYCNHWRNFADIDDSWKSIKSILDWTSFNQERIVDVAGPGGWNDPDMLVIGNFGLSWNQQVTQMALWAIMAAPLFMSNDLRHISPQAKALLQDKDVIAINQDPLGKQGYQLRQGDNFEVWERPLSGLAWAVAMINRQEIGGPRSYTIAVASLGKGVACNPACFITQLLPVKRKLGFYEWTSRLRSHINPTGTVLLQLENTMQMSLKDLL
Rango complex inh = prevents formation of the Rango-importin beta complex; Rango CFP/YFP FRET sensor + importin beta, 45 min; Q14974; 340,000 compounds, 0.031% hits; AID 540263; Potency, µM (top dose mostly 92.2 µM), without a hit: at the top dose inhibition of complex formation; active = rising FRET ratio curve, often small or poorly fitted; inconclusive = mostly compound fluorescence or quenching in the first reads; inactive = flat curves in all reads;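 note: potency is the fitted concentration of half-maximal effect; 0% = DMSO wells and 100% = buffer wells lacking importin beta; nearly all actives have a fitted effect of over 15% in size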
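FRET biosensor (snurportin 1 IBB flanked by EYFP and cerulean), 50 nM, with compound 5 min, then 0.125 microM importin beta in PBS, 1 mM DTT, 0.02% Tween-20, 0.1% BSA. CFP/YFP ratio read after 45 min at room temperature; pre-read flags interference.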
miR-21 reporter = raises the signal of a miR-21 reporter; HeLa miR-21 FLuc reporter, luciferase, 48 h; Potency, µM (series often up to 38.3 µM), inactives show at the highest dose reporter change, positive = more light; 340,000 tested, under 10 active; AID 2288; active = well fitted rising curve with a large enough effect; inconclusive = small, poorly fitted or top-dose-only effect; inactive = no such curve, though single readings can be large or run the other way;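 note: % of control where 0% means no effect; miR-21 action dims this reporter so a rising signal means less miR-21 action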
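Using DMEM plus 10% FBS, HeLa miR-21-FLuc cells are incubated with test compounds (final up to about 40uM) for 48 hours; firefly luciferase signal is then imaged following reagent-mediated lysis.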
Rango dissoc inh = inhibitors of RanGTP-induced Rango-importin beta complex dissociation; AID 540253; 340,000 compounds, 0.071% hits; O95149+P62826; Biochemical FRET Rango-importin beta, RanGTP-induced dissociation; Potency, µM (series often up to 46.1 µM), without a hit: at the highest dose activity change, negative = inhibition; active means falling FRET ratio curve, often poorly fitted, with flat reads before Ran was added; inconclusive means other falling curves, or compound fluorescence or quenching; inactive means flat or rising ratio curve;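 note: potency is the fitted concentration of half-maximal effect; % of control where 0% means no effect; nearly all actives have a fitted effect of over 45% in size; -100% = wells without RanGTP and RCC1; the record marks most hits as doubtful in a second field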
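FRET read at 45 min, room temperature: inhibitors block the CFP/YFP signal rise when RanGTP (0.6 uM Ran, 2 mM GTP, 0.2 uM RCC1) frees Rango (0.1 uM) from importin beta (0.25 uM). Pre-read after 5 min compound exposure flags interference.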
Starred values were filed as active, the others as inactive; u = inconclusive; x = no result given; & = joins results of further samples. An excerpt; rates above refer to the full screens.

SMILES	GLA inh pH 4.5	Rango complex inh	miR-21 reporter	Rango dissoc inh
Cc1ccc2c(c1)C(=O)N1[C@H]3c4ccccc4OC[C@@H]3[C@H](c3ccccc3)[C@]1(C)C(=O)N2	x	0.4%	x	4%
CCCCCNC1=CC(=O)CC(c2ccccc2)C1 (configuration not stated)	-24	1.7%	10%	-22%
CC(=O)c1ccc(N2CCN(CC(=O)Nc3cc(C)on3)CC2)cc1	12	2.4%	-10%	2%
O=C(O)c1sccc1Oc1ccc(F)cc1[N+](=O)[O-]	1	6.0%	0%	12%
Cc1cc(=O)n2cc(-c3ccccc3)nc2[nH]1	0	-0.1%	-23%	1%
COc1ccc(-n2ncc3c(NCc4ccc5c(c4)OCO5)ncnc32)cc1	6	2.4%	-16%	13%
CCN(CC)S(=O)(=O)c1cccc(NC2=NCC(C)S2)c1 (configuration not stated)	3	u	-14%	-17%
O=C(Nc1ccccc1Oc1ccccc1)C1=COCCO1	x	-0.1%	-7%	u
O=C(C(c1ccccc1)c1ccccc1)N1CCCc2ccccc21	-13	0.4%	-41%	-5%
CCC(C(=O)NC1CCCC1)n1nc(C)n2c(cc3occc32)c1=O (configuration not stated)	x	-3.8%	0%	29%
CCCN(CC(=O)Nc1ccccc1C)C(=O)C1CC(=O)N(c2ccccc2C(C)CC)C1 (configuration not stated)	x	-2.3%	x	1%
O=C(Nc1cccnc1)Nc1cccc(F)c1	x	1.2%	-25%	-3%
O=C(NCC(c1ccco1)N1CCc2ccccc2C1)c1ccccc1 (configuration not stated)	x	-6.8%	x	-4%
O=C1CN(c2ccc(Br)cc2)C(=O)N1CC(=O)N1CCCc2ccccc21	-1	-0.2%	-6%	-9%
CC1Cc2cc(/C(O)=C3/C(=O)C(=O)N(CCN4CCOCC4)C3c3cccc(Cl)c3)ccc2O1 (configuration not stated)	2	-0.1%	-9%	-12%
CCC1=NN(C(=O)c2cccc([N+](=O)[O-])c2)C(O)(c2ccc(C)cc2)C1 (configuration not stated)	x	0.7%	4%	-2%
O=C(NC1CCCN(CCc2ccccc2)C1)c1c[nH]c2ccccc12 (configuration not stated)	x	u	-1%	-11%
Cc1ccc(C(=O)NC(=S)Nc2ccc(S(=O)(=O)N3CCN(C)CC3)cc2)cc1	2	4.1%	-25%	-27%
CN(C(=O)CSc1nnc(-c2ccccc2)c(-c2ccccc2)n1)C1CCS(=O)(=O)C1 (configuration not stated)	-1	-1.1%	0%	6%
CN(C)CCCNC1=CC(=O)CC(c2ccccc2)C1 (configuration not stated)	-6	-1.6%	-6%	4%
Cc1cc(C)c(OCC(=O)N(Cc2ccc(N(C)C)cc2)C2CCS(=O)(=O)C2)c(C)c1 (configuration not stated)	7	1.9%	-14%	-9%
C=CCn1c(=O)c2c(nc(Br)n2Cc2ccccc2Cl)n(C)c1=O	-1	0.6%	5%	1%
COc1cc(OC)c2c(c1)OC(=O)CC2c1cc(OC)c(OC)c(OC)c1 (configuration not stated)	4	5.0%	x	-3%
O=C(CN(CC1CCCO1)S(=O)(=O)c1ccc(S(=O)(=O)NC2CC2)cc1)Nc1ccccc1 (configuration not stated)	-5	u	-1%	5%
Cc1ccc(CNC(=O)Cc2ccc(-n3cccc3)cc2)cc1	0	5.6%	21%	-4%
Next part.
SMILES	GLA inh pH 4.5	Rango complex inh	miR-21 reporter	Rango dissoc inh
COC(=O)c1c(C)[nH]c(C)c1C(C)=O	-4	0.3%	-2%	1%
Cc1cccc(NCc2nc3ccccc3n2C)c1	3	-0.5%	-53%	-8%
Cc1nc(SCc2cccc(Oc3ccccc3)c2)n[nH]1	2	2.9%	-39%	-6%
Cn1c(/C=C/c2ccccc2)nc2ccccc2c1=O	x	u	-28%	-24%
COCCCn1cc(C(=O)c2cc(Br)ccc2O)cc(C#N)c1=O	-1	1.8%	12%	1%
CCCC1Cc2nc(N3CCCCC3)c(C#N)cc2CO1 (configuration not stated)	u	-0.4%	-12%	0%
CCC(=O)Nc1c2c(nn1-c1cccc(Cl)c1)CSC2	-7	-1.0%	-10%	-4%
Cc1nc(-c2nc(-c3c(C(=O)NN)noc3C)cs2)cs1	-22	-0.8%	-64%	-2%
O=C(Cn1cnc2cc([N+](=O)[O-])ccc2c1=O)Nc1ccc2c(c1)CCC2	0	1.2%	1%	2%
CCOC(=O)c1csc(NC(=O)CN2CCCCC2)n1	x	0.0%	0%	11%
Cc1nn(-c2ccccc2)c2c1c(C)c(CCC(=O)N1CCOCC1)c(=O)n2C	x	2.1%	-3%	7%
Cc1ccc(-c2cc(-c3ccccc3)nc(N/N=C/c3cccnc3)n2)cc1	x	1.2%	x	1%
Cn1c(C(=O)OC(C(=O)NC(C)(C)C)c2cccnc2)cc2sccc21 (configuration not stated)	-6	3.4%	-4%	0%
CCOC(=O)c1cnn(-c2ncnc3sc4c(c23)CCC4)c1N	2	-0.9%	-1%	-17%
NNC(=O)c1ccccc1CO	x	-1.2%	x	10%
S=C(NCCNC(=S)Nc1ccccc1Cl)Nc1ccccc1Cl	x	0.4%	7%	-7%
COc1ccc2[nH]c3c(NCCC4=CCCCC4)ncnc3c2c1	-11	-1.2%	5%	-1%
COc1cc2cc(CCCOC(=O)c3cccc(Br)c3)oc(=O)c2cc1OC	x	-1.9%	x	-15%
CCOC(=O)C1CCN(C(=O)c2cccc(S(=O)(=O)Nc3ccc(C)cc3C)c2)CC1	-2	2.6%	-4%	-15%
CCN(CC)CCn1c(O)c(N=O)c2ccccc21	-1	1.1%	-1%	-2%
O=C(NCC(c1cccnc1)N1CCN(c2ccc(F)cc2)CC1)OCc1ccccc1 (configuration not stated)	-2	-2.5%	19%	-3%
Cc1nc(C)c(-c2ccc(SCc3ccc([N+](=O)[O-])cc3)nn2)s1	x	u	2%	0%
Cc1cc(=O)[nH]c(SCC(=O)Nc2ccc3c(c2)CCC3)c1C#N	x	-1.4%	x	2%
CCOC(=O)c1c(C)[nH]c(C)c1C(=O)CSc1nc2ccccc2c(=O)n1-c1ccc(C)cc1	-6	4.2%	17%	-4%
O=C(Nc1ccc(F)c(Cl)c1)C1CCCN(C2=NS(=O)(=O)c3ccccc32)C1 (configuration not stated)	x	u	x	-4%
Continued:
SMILES	GLA inh pH 4.5	Rango complex inh	miR-21 reporter	Rango dissoc inh
COc1ccc(C(=O)OCC2CC(c3ccccc3)=NO2)cc1OC (configuration not stated)	-1	-0.5%	-13%	-11%
COc1cccc(C(=O)OCC(=O)N2CCc3ccccc3C2)c1OC	x	-2.8%	x	-14%
Cc1cccc(C)c1NC(=O)C1C2C=CC(C2)C1C(=O)O (configuration not stated)	x	-0.8%	0%	9%
CCOC(=O)C(=CNc1cc(C)ccn1)C(=O)OCC	-1	0.0%	-10%	-18%
O=C(NC1CCCC1)c1csc2c1CCCC2	3	2.1%	-21%	-8%
N#CCc1nn(-c2ccccc2)c(N)c1C#N	6	3.3%	-4%	1%
COc1ccccc1-c1nnc(SCC(=O)Nc2ccccc2)o1	-4	0.3%	-27%	-1%
COc1ccc(S(=O)(=O)CCc2nnc(NC(=O)c3ccc(F)cc3)s2)cc1	x	0.1%	6%	5%
Cc1ccc(C(=O)OC(C)C(=O)Nc2ccc(Cl)cn2)s1 (configuration not stated)	x	0.2%	x	-1%
COc1cccc(NC(=O)N2CCCC2C(=O)NC2CCCCC2)c1 (configuration not stated)	x	0.1%	-5%	-7%
COC(=O)C1=C(CS(=O)(=O)c2ccccc2)NC(=O)NC1c1ccc(O)cc1 (configuration not stated)	x	-2.9%	1%	17%
Cc1ccc(SC[C@H](Cc2ccccc2)N2CCN(CCc3ccccc3)CCC2=O)cc1	-7	-1.2%	3%	-5%
O=S(=O)(NCC1CCCO1)c1ccc(Cl)nc1 (configuration not stated)	-6	-1.6%	0%	4%
Cc1ccc2nc(COc3ccc(N(C)S(=O)(=O)c4ccccc4)cc3)cc(=O)n2c1	6	u	-4%	-15%
CC(C)n1c(-c2ccccc2)nc(=S)c2c1CCCC2	10	x	-18%	x
CCOc1nc(C)nc(NC(=O)NS(=O)(=O)c2ccccc2Cl)n1	0	-0.9%	-1%	-9%
O=C(NNC(=O)c1cc(-c2cccc(Br)c2)nc2ccccc12)c1csc(N2CCOCC2)n1	x	2.1%	x	-12%
N#CCCN(C(=S)NC(=O)C1CCCCC1)c1ccccc1F	x	2.9%	x	-11%
CCc1cc(Cn2nc(-c3ccccc3)cc2C(=O)NCc2ccccc2OC)on1	x	0.3%	x	-14%
CCOc1ccc(N/C(N)=N/c2nc(C)c(C)c(=O)[nH]2)cc1	x	-0.5%	2%	4%
O=C(COC(=O)CSCC(=O)N1CCCCC1)NCc1ccc(F)cc1	-1	-2.8%	-1%	-10%
Cc1ccc(S(=O)(=O)N(CC(=O)N2CCN(c3ccc(F)cc3)CC2)C2CCCCC2)cc1	-7	1.0%	10%	-2%
Cn1ccnc1-c1nc2ccccc2[nH]c1=O	u	u	-4%	u
Clc1ccc(Nc2cc(-c3ccccc3)nc3ncnn23)cc1	5	-3.7%	-2%	2%
Cc1noc(NS(=O)(=O)c2ccc(NC(=O)CSc3nc4ccccc4[nH]3)cc2)c1C	4	0.3%	-3%	6%

Some of these compounds in order of molecular weight, ascending:
SMILES	GLA inh pH 4.5	Rango complex inh	miR-21 reporter	Rango dissoc inh
Cn1ccnc1-c1nc2ccccc2[nH]c1=O	u	u	-4%	u
O=S(=O)(NCC1CCCO1)c1ccc(Cl)nc1 (configuration not stated)	-6	-1.6%	0%	4%
COC(=O)C1=C(CS(=O)(=O)c2ccccc2)NC(=O)NC1c1ccc(O)cc1 (configuration not stated)	x	-2.9%	1%	17%

Next section
SMILES	GLA inh pH 4.5	Rango complex inh	miR-21 reporter	Rango dissoc inh
Cc1ccc(CN(Cc2cc3cccc(C)c3[nH]c2=O)C(=O)N(C)C)cc1	-15	u	1%	-8%
COc1ccccc1C(=O)NCCC(=O)N1CC=C(c2ccccc2)CC1	x	-0.5%	x	-2%
Cc1ccc(S(=O)(=O)N2CCN(C(=O)COC(=O)CCOc3ccccc3)CC2)c(C)c1	x	-3.9%	x	-1%
C=CCNC(=O)c1onc(CSc2ccccc2CC)c1C(=O)O	0	2.9%	7%	-8%
CC1=CCC[C@H]2[C@H](C1)C(=O)C[C@@H](C)[C@]2(C)CC/C(=C/CO)CO	x	2.8%	x	-4%
CCOc1ccc(S(=O)(=O)N2CCN(C(=O)COc3ccc(Br)cc3)CC2)cc1	x	-3.1%	x	-16%
Cc1noc(C)c1S(=O)(=O)N1CCN(C(c2ccccc2)c2ccc(Cl)cc2)CC1 (configuration not stated)	0	-1.1%	0%	-12%
Cc1ccc(NS(=O)(=O)c2cc(C(=O)N3CCN(CCO)CC3)ccc2C)cc1	x	-1.7%	x	-12%
O=C(CCc1ccncc1)N1CCCC(Nc2ccc(F)cc2)C1 (configuration not stated)	x	5.9%	1%	3%
CCCCS(=O)(=O)N1CCN(S(=O)(=O)c2ccc(Cl)s2)CC1	x	4.8%	-2%	30%
CCN(CC)CCOc1ccc(/C(=C(\Cl)c2ccccc2)c2ccccc2)cc1	1&0	3.2%	x	-3%
COc1ccc(N2CCN(C3CC(=O)N(c4ccc5c(c4)OCCO5)C3=O)CC2)cc1 (configuration not stated)	-3	-0.2%	-5%	1%
Cc1[nH][nH]c(=O)c1C(c1ccc(O)c([N+](=O)[O-])c1)c1c(C)[nH][nH]c1=O	1	-0.6%	-4%	15%
O=C(/C=C/c1cccs1)N1CCCCC1	1	0.9%	-52%	1%
S=C1NCCOCCNC(=S)NCCOCCOCCOCCN1	0	-2.6%	-4%	-2%
COc1ccc(NC(=O)c2ccc(C(=O)c3cc(OC)ccc3OC)cc2)cc1	0	-0.3%	-9%	6%

Some of these compounds in order of their number in Rango dissoc inh, descending:
SMILES	GLA inh pH 4.5	Rango complex inh	miR-21 reporter	Rango dissoc inh
CCCCS(=O)(=O)N1CCN(S(=O)(=O)c2ccc(Cl)s2)CC1	x	4.8%	-2%	30%
Cc1[nH][nH]c(=O)c1C(c1ccc(O)c([N+](=O)[O-])c1)c1c(C)[nH][nH]c1=O	1	-0.6%	-4%	15%
C=CCNC(=O)c1onc(CSc2ccccc2CC)c1C(=O)O	0	2.9%	7%	-8%
Cc1noc(C)c1S(=O)(=O)N1CCN(C(c2ccccc2)c2ccc(Cl)cc2)CC1 (configuration not stated)	0	-1.1%	0%	-12%
